# Assay outcomes as filed in PubChem BioAssay.
# VDR inhibitor = vitamin D3 receptor (human) inhibition; VDR-SRC2-3 peptide fluorescence polarization, 2 h; Potency, µM, without a hit: max response, negative = inhibition, most hits filed as inhibitors; hit rate 0.93% among 400,000; P11473; active means well fitted inhibition curve with a large enough effect; inconclusive means small, poorly fitted or top-dose-only effect, or another doubt; inactive means no such curve, though single readings can be large or run the other way; further: series mostly up to about 120 µM
# Target sequence (P11473 whole entry, looked up): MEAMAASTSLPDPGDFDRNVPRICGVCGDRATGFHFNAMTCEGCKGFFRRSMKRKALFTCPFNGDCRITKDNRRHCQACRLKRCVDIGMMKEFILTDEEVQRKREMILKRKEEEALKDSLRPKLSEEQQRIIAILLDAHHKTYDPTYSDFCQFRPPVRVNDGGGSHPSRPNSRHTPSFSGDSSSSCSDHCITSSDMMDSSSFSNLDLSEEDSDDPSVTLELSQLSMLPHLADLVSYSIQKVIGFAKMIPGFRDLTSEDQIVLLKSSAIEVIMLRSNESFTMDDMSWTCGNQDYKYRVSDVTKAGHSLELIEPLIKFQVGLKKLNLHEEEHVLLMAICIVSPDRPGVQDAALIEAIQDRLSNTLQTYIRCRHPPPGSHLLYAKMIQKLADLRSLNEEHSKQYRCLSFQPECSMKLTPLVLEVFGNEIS
#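 FP read-out; VDR + SRC2-3 coactivator peptide; 23 nl compound by pintool; 2 h RT incubation; reagents held at 4 deg C, protected from light.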
# The depositor's hits bear a star; ? = inconclusive; & = joins results of further samples. On the % scale 0 is the no-effect control and ±100 the full control effect; potency means the concentration at half of the fitted maximal effect.
# Sample of the layout:
VDR inhibitor,smiles
-17%,COc1cc(C2c3c(oc4ccccc4c3=O)C(=O)N2c2nnc(C(C)C)s2)cc(OC)c1OC (stereo not given)
-12%,Cc1ccc(CNC(=O)c2cccc3c2C(=O)c2ccc(N4CCOCC4)cc2S3(=O)=O)cc1
-13%,C=CC(=O)N1CCCC(Nc2nc(Nc3ccc(N(C)C(=O)CC)cc3C)nc3nc[nH]c23)C1 (stereo not given)
4%,Cc1cc2nn(-c3ccccc3)nc2cc1NC(=O)Cc1ccc(Cl)cc1
?,COc1ccc(CCCOC(Cn2ccnc2)c2ccc(OC)cc2)cc1 (stereo not given)
-2%,CCn1c(=O)cc(SCC(=O)N2CCOCC2)c2ccccc21
9%,COc1cccc(CNC(=O)CCC2CCCN(C(=O)CCC(F)(F)F)C2)c1 (stereo not given)

# The list itself, from the start:
VDR inhibitor,smiles
-17%,COc1cc(C2c3c(oc4ccccc4c3=O)C(=O)N2c2nnc(C(C)C)s2)cc(OC)c1OC (stereo not given)
-12%,Cc1ccc(CNC(=O)c2cccc3c2C(=O)c2ccc(N4CCOCC4)cc2S3(=O)=O)cc1
-13%,C=CC(=O)N1CCCC(Nc2nc(Nc3ccc(N(C)C(=O)CC)cc3C)nc3nc[nH]c23)C1 (stereo not given)
4%,Cc1cc2nn(-c3ccccc3)nc2cc1NC(=O)Cc1ccc(Cl)cc1
?,COc1ccc(CCCOC(Cn2ccnc2)c2ccc(OC)cc2)cc1 (stereo not given)
-2%,CCn1c(=O)cc(SCC(=O)N2CCOCC2)c2ccccc21
9%,COc1cccc(CNC(=O)CCC2CCCN(C(=O)CCC(F)(F)F)C2)c1 (stereo not given)
-5%,COc1ccc(CCN(C)c2ccc(S(=O)(=O)N3CCCC3)cc2[N+](=O)[O-])cc1OC
-3%,Cc1ccccc1CNC(=O)Nc1ccc(Cl)cc1
7%,O=C(CN1C2=NCCCN2c2ccccc21)c1ccc2c(c1)OCO2
-12%,O=S(=O)(c1cc(Cl)ccc1Cl)N1CCN(c2ccccn2)CC1
-8%,CC1CCN(S(=O)(=O)c2ccc3c(c2)N(CC(=O)NCCN(C)C)C(=O)CS3)CC1
2%,CCOc1ccc(CNC(=O)C2CCN(C(=O)N3CC(CC)Oc4ccccc43)CC2)cc1 (stereo not given)
-16%,CCCCN(C)c1nc2c(S(=O)(=O)c3ccc(CC)cc3)nnn2c2ccc(Cl)cc12
-19%,COc1cc2c(cc1OC)CN(S(C)(=O)=O)CC2
20%,COC(=O)N/N=C/c1ccccc1Cl
-5%,CCOc1ccc(NC(=O)Cn2c(=O)n(CCc3ccccc3)c(=O)c3c4c(sc32)CCCC4)cc1
7%,COc1ccccc1CNC(=O)CSc1ccc(-c2sc(-c3ccccc3)nc2C)nn1
18%,CCN1CCN(C(=O)c2ccccc2N(C)S(=O)(=O)c2ccc(C)cc2)CC1
-4%,O=C(CCn1c(=S)[nH]c2cc3c(cc2c1=O)OCO3)NCc1ccc(Cl)cc1
-5%,COc1ccc(NC(=O)Cn2c(=O)n(Cc3ccccc3Cl)c(=O)c3cc(OC)c(OC)cc32)cc1OC
-3%,O=C(NCCCN1CCOCC1)c1cccc(S(=O)(=O)Nc2cc(Cl)ccc2Cl)c1
-13%,Cc1ccc2c(c1)CCCN2CC(=O)N(C)c1c(N)n(Cc2ccccc2)c(=O)[nH]c1=O
-2%,Cc1nc(N2CCN(c3ccccn3)CC2)c2c(C)c(C(=O)N3CCN(c4cccc(Cl)c4)CC3)sc2n1
6%,CCOCCc1nn2c(=O)cc(COC(=O)c3ccccc3OC)nc2s1
-12%,O=C(NC1(N2CCOCC2)CC1)c1ccc(Cl)cc1
14%,COc1ccc(-n2c(SCC(=O)Nc3ccccc3OC)nc(O)c(Cc3ccccc3)c2=O)cc1
?,CC(C(=O)Nc1ccc(S(=O)(=O)N2CCCC2)cc1)N1CCc2ccccc2C1 (stereo not given)
0%,Nc1nnc(N)c2ccccc12
-7%,COC(=O)c1sccc1S(=O)(=O)N(CC(=O)Nc1cc(C)cc(C)c1)c1ccc(Cl)cc1

# Gathered by group: the entries above containing four or more nitrogen atoms.
VDR inhibitor,smiles
-13%,C=CC(=O)N1CCCC(Nc2nc(Nc3ccc(N(C)C(=O)CC)cc3C)nc3nc[nH]c23)C1 (stereo not given)
4%,Cc1cc2nn(-c3ccccc3)nc2cc1NC(=O)Cc1ccc(Cl)cc1
-8%,CC1CCN(S(=O)(=O)c2ccc3c(c2)N(CC(=O)NCCN(C)C)C(=O)CS3)CC1
-16%,CCCCN(C)c1nc2c(S(=O)(=O)c3ccc(CC)cc3)nnn2c2ccc(Cl)cc12
7%,COc1ccccc1CNC(=O)CSc1ccc(-c2sc(-c3ccccc3)nc2C)nn1
-13%,Cc1ccc2c(c1)CCCN2CC(=O)N(C)c1c(N)n(Cc2ccccc2)c(=O)[nH]c1=O
-2%,Cc1nc(N2CCN(c3ccccn3)CC2)c2c(C)c(C(=O)N3CCN(c4cccc(Cl)c4)CC3)sc2n1
0%,Nc1nnc(N)c2ccccc12

# The list continues:
VDR inhibitor,smiles
-27%,COc1ccc(CCNC(=O)CN2CCN(c3ccccc3Cl)CC2)cc1
18%,CC(=O)c1c(C)[nH]c(C(=O)OCC(=O)Nc2ccc(C)cc2[N+](=O)[O-])c1C
11%,Fc1ccc(-c2nn(-c3ccccc3Cl)c3c2cnc2ccccc23)cc1
2%,Cc1cccc(Cn2c(N3CCN(C)CC3)nc3c2c(=O)[nH]c(=O)n3C)c1
-8%,Cc1ccccc1C(=O)N1CCC(C(=O)NC2CCCCCC2)CC1
-18%,CCN(CC)C(=O)C1=C(C)NC(=S)NC1c1ccc(C)s1 (stereo not given)
-10%,O=c1c2ccccc2oc2c1ccc1ccccc12
-6%,CN(C)Cc1c(C(=O)N/N=C/c2ccc(OCc3c(F)cccc3Cl)cc2)nnn1-c1nonc1N
-17%,Cc1cc(C)c(S(=O)(=O)c2ccccc2C)c(Oc2ccccc2)n1
16%,O=C1CSC2(C(=O)N(Cc3ccccc3)c3ccccc32)N1c1cccc(F)c1 (stereo not given)
1%,COc1ccc(C(=O)O/N=C(\N)c2ccncc2)cc1OC
-2%,CC(=O)N(C)c1ccc(OCC(O)CN(Cc2ccco2)S(=O)(=O)c2ccc(C)cc2)cc1 (stereo not given)
-24%&4%,CCOC(=O)c1c(S(=O)(=O)NCC(=O)N2CCN(c3ccccc3OC)CC2)c(C)n(C)c1C
14%,Cc1ccc(C(=O)NCC(=O)NCC(=O)OCc2ccc(Oc3ccc([N+](=O)[O-])cc3)cc2)cc1
-1%,CCOC(=O)c1ccc(Oc2nc(N(C)C)nc(N3CCOCC3)n2)cc1
-3%,O=C(COC(=O)CCc1nc2ccccc2c(=O)[nH]1)Nc1ccccc1Cl
-16%,CCOC(=O)c1ccc(N2Cc3ccccc3C2=NC(=O)c2ccncc2)cc1
-17%,O=C(OCC(O)COc1ccccc1)c1ccc([N+](=O)[O-])cc1 (stereo not given)
11%,Cc1ccc(-n2c(=O)[nH]c3c(C(N)=O)nc(C(C)C)nc32)cc1
3%,CCN(Cc1ccccc1)Cc1c(O)ccc2c(=O)c(-c3ccccc3OC)c(C(F)(F)F)oc12
13%,COc1ccccc1Nc1nc2ccccc2n2cnnc12
6%,Cc1cccc(NS(=O)(=O)c2ccc3c(c2)CC(C)N3C(=O)C2CCC2)c1C (stereo not given)
-4%,CCCCNc1ncnc2[nH]ncc12
9%,CC1CCC(C(C)C)C(OC(=O)CSc2nccc(=O)[nH]2)C1 (stereo not given)
11%,N#C/C(=C(/O)CN1CCN(c2ccccc2F)CC1)c1nc(-c2ccc(Cl)cc2)cs1
21%,Cc1sc2nc(C(C)C)nc(SCC(=O)N3CCN(C(=O)c4ccco4)CC3)c2c1C
-13%,Cc1[nH]c(=O)[nH]c(=O)c1S(=O)(=O)N1CCCc2ccccc21
-20%,C/C(=N\NS(=O)(=O)c1ccc(Cl)c([N+](=O)[O-])c1)c1cc2ccccc2o1
1%&7%,COc1cc(NC(=O)Cn2c(=O)n(CC3CCCO3)c(=O)c3ccccc32)cc(OC)c1 (stereo not given)
14%,CN(C)S(=O)(=O)c1ccc(-n2cccc2)cc1
15%,CCN(CCCNC(=O)CNC(=O)c1nn(-c2ccc(OC)cc2)c(=O)c2ccccc12)c1cccc(C)c1
0%,CC(C)N1CC(O)=C(c2nc3ccccc3[nH]2)C1=N
?,CCOC(=O)Cn1c2ccc(F)cc2c2nc(C)sc21
-11%,Cc1ccc(-c2nc(CN3CCCCC3c3cccc(F)c3)c(C)o2)o1 (stereo not given)
8%,CCOCCOC(=O)COC(=O)c1ccccc1NC(=O)c1ccccc1
-4%,Cc1c(NS(=O)(=O)c2ccc(NCC3CCCO3)c([N+](=O)[O-])c2)c(=O)n(-c2ccccc2)n1C (stereo not given)
16%,O=C(c1ccc(F)cc1)c1ccc(-c2ccc(F)cc2)nc1
6%,CC(C)=Cc1oc2ccc([N+](=O)[O-])cc2c1N1CCOCC1
6%,C[C@H]1CCC2[C@](C)(CO)[C@@H](O)CC[C@]2(C)[C@@]12CCC(CO)(CCO)O2 (stereo not given in full)
-9%,CC(C)c1ccc(Nc2cc(C(=O)NCc3cccs3)c3ccccc3n2)cc1
2%,CS(=O)(=O)N(CC(=O)NC1CCCCC1)Cc1ccc(F)cc1
-1%,Cc1cc(C(=O)NC2CC(C)(C)Cc3c2cnn3-c2ccccc2)n(C)n1 (stereo not given)
-11%,Cc1cc(C)n(CC(=O)N/N=C/c2cccc([N+](=O)[O-])c2)n1
-12%,COc1cccc(NC(=O)C2CCCN(S(=O)(=O)c3c(C)nn(C)c3C)C2)c1 (stereo not given)
4%,CCN(CC)CCNC(=O)c1cc(-c2cccnc2)nc2ccc(S(=O)(=O)N3CCC(C)CC3)cc12
14%,Cc1ccc(S(=O)(=O)NC(=O)COc2ccccc2)cc1
79µM*,S=C(Nc1cccc(Cl)c1Cl)Nn1cnnc1
-8%,CC1CCN(C(=O)c2ccc(S(=O)(=O)N(C)C)cc2)C(C)C1 (stereo not given)
-16%,CCCCC(Sc1ccc2nnc(-c3ccccn3)n2n1)C(=O)O (stereo not given)
3%,COc1ccc(S(=O)(=O)N2CCc3ccccc32)cc1C(=O)Nc1cc(S(C)(=O)=O)ccc1Cl
8%,Cc1ccc(Cn2nnc3c(=O)n(CC(=O)NCc4ccc5c(c4)OCO5)cnc32)cc1
0%,O=C1OC(Cc2ccccn2)C(O)=C1C1=NCCCCN1 (stereo not given)
-10%,Cc1ccc(COc2cccc3cc(-c4noc(-c5ccc(C)cc5)n4)c(=O)oc23)cc1
-5%,CN(Cc1ccccc1)C(=O)c1cc2c(s1)-c1ccc(Cl)cc1SC2
14%,CCOc1ccccc1NC(=O)c1cc(=O)c2ccccc2o1
-10%,COc1cc(C(=O)Nc2scc(-c3ccc(Br)cc3)c2C(=O)O)cc(OC)c1OC
11%,O=C(Nc1ccc(F)cc1)c1ccc(-n2ccnc2)nc1
-10%,O=C(CC1NCCNC1=O)Nc1ccc2c(c1)OCO2 (stereo not given)
9%,Cc1ccc(S(=O)(=O)NC2CCCCC2)c2nsnc12
11%,COCC(=O)N(C)[C@H]1C[C@H]2c3cc(N4CCN(C)CC4)ccc3CCN2C(=O)[C@H]1[C@H](C)O

# Next part:
VDR inhibitor,smiles
-16%,FC(F)(F)c1ccccc1NC(=S)N1CCN(Cc2ccc3c(c2)OCO3)CC1
?,COc1ccc(-c2cc(-c3ccccc3)nc3c2COc2ccc(Cl)cc2-3)cc1
6%&12%,c1ccc(CN2CCC3(CCc4ccccc43)CC2)cc1
-14%,CCN(C[C@H]1N[C@@](C)(C(=O)OC)[C@H]2C(=O)N(C)C(=O)[C@@H]12)C(=O)c1ccc(F)cc1
0%,CCN(C(=O)c1cnc(OC)cc1C(F)(F)F)c1ccc(Cl)cc1Cl
10%,COc1ccccc1OCC(=O)N/N=C1/SCC(=O)N1Cc1ccccc1
0%,O=CN1CCN(C2CC(=O)N(c3ccc(Br)cc3)C2=O)CC1 (stereo not given)
12%,Cc1ccc(SCC(=O)NCCc2ccc(F)cc2)cc1
16%,CCOc1ccc(C(C)=O)cc1N1C(=O)C2C3C=CC(C3)C2C1=O (stereo not given)
-17%,O=C(O)c1nnn(-c2cccc(C(F)(F)F)c2)c1-c1ccccc1
4%,Cc1ccc(S(=O)(=O)NCCC(=O)O)cc1
5%,COc1ccc(S(=O)(=O)Nc2ccc3c(c2)C(=O)N([C@H](C)CO)C[C@H](C)[C@@H](CN(C)C(=O)Nc2c(C)noc2C)O3)cc1
-4%,CN(c1ccccc1C(=O)N1CCOCC1)S(C)(=O)=O
8%,COc1ccc(S(=O)(=O)N2CCN(CC(O)CN3CCOCC3)CC2)cc1 (stereo not given)
7%,COc1ccc(NC(=O)CCCn2c(=O)c3sccc3n(Cc3ccccc3C)c2=O)cc1
0%,CCOC(=O)Cc1csc(NC(=O)COc2ccc3ccccc3c2)n1
2%,Cc1ccc(CNC(=O)c2sc3nc4n(c(=O)c3c2C)CCCC4)cc1
-16%,CCc1ccc(C(C(=O)NC2CCCC2)N(Cc2cccnc2)C(=O)c2csnn2)cc1 (stereo not given)
-3%,C/C(=N/NC(=O)c1cnccn1)c1cccs1
-15%,Cc1ccc(Nc2nnc(-c3ccc(C)c(S(=O)(=O)NCc4nc5ccccc5[nH]4)c3)c3ccccc23)cc1
-9%,O=C(O)C(Cc1ccccc1)N1C(=O)CCC1=O (stereo not given)
-4%,C=CCNc1nc(N)c([N+](=O)[O-])c(NCCO)n1
14%,CCc1cccc(NC(=O)COC(=O)c2cc(=O)c3ccccc3o2)c1
-11%,O=C(O)Cc1ccc2[nH]c3ccc(CC(=O)O)cc3c2c1
-4%,COC(=O)c1ccccc1Sc1c(/C=N/OC(=O)c2ccccc2)c(C(F)(F)F)nn1C
-4%,Cc1ccc(S(=O)(=O)Nc2ccc(C(=O)NCCCn3ccnc3)cc2)cc1[N+](=O)[O-]

# No new results follow: an excerpt of the list.
VDR inhibitor,smiles
-15%,Cc1ccc(Nc2nnc(-c3ccc(C)c(S(=O)(=O)NCc4nc5ccccc5[nH]4)c3)c3ccccc23)cc1
-9%,O=C(O)C(Cc1ccccc1)N1C(=O)CCC1=O (stereo not given)

# The list is partial; the hit share may differ from the screen's.
